BasE inh – blocks the Acinetobacter baumannii siderophore enzyme BasE; inhibition, % (test concentration not listed); AID 485350; purified BasE, fluorescence polarization binding displacement; 84,000 compounds, 0.1% hits;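 active = both replicates above 25% with normal brightness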;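 note: 0% = negative plate control signal and 100% = positive plate control signal; stock transfer was 100 nL into about 30 µL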
KSHV LANA nucl – inhibitors of KSHV LANA binding to nucleosomes; z-score (concentration not given with the values); 51,000 compounds, 0.3% hits; FITC-LANA1-23 / chicken nucleosome fluorescence polarization; stronger effect = lower value;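 active = both repeat wells score below -2 in polarization z-score versus plate sample wells, excluding overly bright wells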;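 note: 100 nL library stock added to about 30 µL; numbers are from one replicate; some results filed as inactive read as strong as hits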
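Assay system: purified chicken nucleosomes with FITC-labelled LANA N-terminal peptide (1-23) / Probe or stimulus: 50 nM FITC-LANA1-23 probe / Compound dosing: pin-transferred compound, 100 nL / Times: compound with peptide–nucleosome mix 10–45 min at room temperature / Technique: fluorescence polarization, 480 nm excitation, 535 nm parallel and perpendicular emission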
* hit, by the source's call; / = no result given; & = joins results of further samples.

Molecule	BasE inh	KSHV LANA nucl
CCCNCc1nc(-c2cccc(C)c2)no1	0.6	-0.441
C=CCn1c(N)c(S(=O)(=O)c2cccc(C)c2)c2nc3ccccc3nc21	1.1	-0.88
CC(=O)n1nc(C)c(CS(=O)(=O)c2ccccc2)c1C	/	0.883
COc1ccc(N2CCN(C(=NCCc3ccccc3)Nc3ccc(C(=O)O)cc3)CC2)cc1	-0.2	-0.307
O=S(=O)(NNc1c(Cl)cncc1Cl)c1ccc2c(c1)OCC2	0.6	0.0365
CC(=O)Oc1ccc2c(=O)c(Oc3cc(C)cc(C)c3)coc2c1	0.2	/
COCc1ccccc1Cn1cnc2ccccc21	6.4	-0.293
O=C(Nc1ccc2ccccc2c1)C1CCC1	0.1	/
O=C(NCCCN1CCCCCC1)c1ccc(N2CCCC2=O)cc1	-9.7	2.52
S=C(NCc1ccco1)SCc1cn2cccnc2n1	-0.1	/
Cc1nc2nc(NC(=O)C(C)(C)C)[nH]n2c(=O)c1Cc1ccccc1	2.5	0.927
COc1ccc(C2(CNC(=S)Nc3ccccc3)CCOCC2)cc1	0.9	/
CC(C(=O)Nc1ccc(F)c(F)c1F)N1C(=O)c2ccccc2S1(=O)=O (stereo not given)	2.2	-0.404
COc1cccc(C(=O)NCc2ccccc2OC)c1	0.1	/
COc1nc(Nc2ccccc2)nc(NC(C)C)n1	-1.5	-0.154
CC1(C)OC(C(N)=O)C(C(N)=O)O1 (stereo not given)	-0.9	0.214
CCOC(=O)C1CCN(C(=O)c2ccc(NS(=O)(=O)c3ccc(OCC)cc3)cc2)CC1	-0.2	/
O=C(COc1ccc2c(c1)OCO2)NC1CCCc2ccccc21 (stereo not given)	0.3	/
CC(C)=CC(=O)Nc1nnc(-c2ccccc2)s1	-0.1	-0.418
C=CCn1c(C)cc(C(=O)COC(=O)Cc2sc(N)nc2-c2ccc(C)cc2)c1C	-0.5	/
CC1C(c2ccccc2)=[N+]([O-])C2(CCCC2)N1O (stereo not given)	1.3	/
CCSc1nnc(-c2ccc(N(CC)CC)cc2)o1	0.1	/
CCn1nc(C(=O)Nc2sccc2C(N)=O)c2ccccc2c1=O	1.1	/
CSC(=NS(=O)(=O)c1ccc(C)cc1)SC	-0.3	0.388
Cc1cc(C)n(-c2n[nH]c(=S)c3ccccc23)n1	-0.2	-1.54

Molecule	BasE inh	KSHV LANA nucl
CC(C)[C@H](NS(=O)(=O)c1cccc(C(F)(F)F)c1)C(=O)OCc1nnc(-c2ccccc2)o1	2.4	/
CCOc1ccc(CCNC(=O)CCc2c(C)nc3nc[nH]n3c2=O)cc1OCC	1.6	-0.095
CC(Sc1ccc(S(=O)(=O)N2CCN(C)CC2)cn1)C(=O)NC1(C#N)CCCCC1 (stereo not given)	0.8	/
CC(=O)N1CCN(S(=O)(=O)c2ccc(C)cc2)C1C (stereo not given)	0.5	-0.0035
FC(F)(F)c1cnc(NN=C2CCSCC2)c(Cl)c1	-1.5	-0.165
N=C1C(c2nc3ccccc3s2)=C(O)CN1N1C(=O)c2ccccc2C1=O	1.9	/
CCOC(=O)[C@H](CCc1ccccc1)N[C@@H](C)C(=O)N1[C@H](C(=O)O)C[C@@H]2CCC[C@@H]21	/	0.169&0.333&0.451
O=c1nc2s/c(=C\c3cccs3)c(=O)n2nc1Cc1ccccc1	-1.0	/
CCc1ccc(NC(=O)Cn2nc(C)n3cccc3c2=O)cc1	-0.2	-0.724
CCOC(=O)C1=C(c2ccccc2)N(C)C(=O)NC1c1ccccc1F (stereo not given)	2.9	0.142
O=S(=O)(c1ccc(Cl)cc1)n1cnc2ccccc21	3.6	/
COc1cc(/C=N/N(C)C(=S)Nc2cccc(Cl)c2C)cc(OC)c1OC	0.9	/
NC(=O)COc1ccc(/C=N/NC(=O)c2ccc(CN3CCOCC3)cc2)cc1	1.3	-0.411
N#Cc1c(F)cccc1C(C#N)c1cccs1 (stereo not given)	/	0.171
COc1ccccc1-n1nnnc1SCC(=O)NC1CCCCC1	3.4	-0.438
CCN1C(=O)C(Cc2c[nH]c3ccccc23)NC1=S (stereo not given)	-1.4	0.188
Cc1ccc(CSCC(=O)Nc2ccc3c(c2)OCO3)cc1	-0.1	-0.359
OC(CN1CCOCC1)C(F)(F)F (stereo not given)	/	-0.155
COc1cccc(/C=C2/C(=O)NN(c3ccccc3)C2=O)c1	0.2	/
CC(C)CNc1cc(N2CCCC2)c2noc3c2c1C(=O)c1ccccc1-3	-3.8	0.279
CCN1CCN(C(=O)C2CCCCC2C(=O)O)CC1 (stereo not given)	0.4	-0.017
O=C(NCCc1ccc(Cl)cc1)c1ccco1	-0.4	-0.365
N=c1c2c(-c3ccccc3)c(-c3ccccc3)n(Cc3ccco3)c2ncn1CCO	-1.8	1.82
COc1nc2c(c(-c3ccco3)c1C#N)Cc1ccccc1-2	2.1	0.0295
Cc1nc2ccccc2n1CC(=O)NC(C)C1CC2CCC1C2 (stereo not given)	0.5	/

Arranged by SMILES length (lowest first): 3 of the compounds above.
Molecule	BasE inh	KSHV LANA nucl
NC(=O)COc1ccc(/C=N/NC(=O)c2ccc(CN3CCOCC3)cc2)cc1	1.3	-0.411
N=c1c2c(-c3ccccc3)c(-c3ccccc3)n(Cc3ccco3)c2ncn1CCO	-1.8	1.82
CCOC(=O)[C@H](CCc1ccccc1)N[C@@H](C)C(=O)N1[C@H](C(=O)O)C[C@@H]2CCC[C@@H]21	/	0.169&0.333&0.451

(cont.)
Molecule	BasE inh	KSHV LANA nucl
CCC(C)NC(=O)CCc1nc2ccccc2n1-c1ccccc1 (stereo not given)	-1.6	/
CCC1SC(CC)C(=O)N(CC(=O)Nc2cccc(C)c2)C1=O (stereo not given)	1.2	-0.304
CC(C)C(NC(=O)C12CC3CC(CC(C3)C1)C2)C(=O)NC1=NCCS1 (stereo not given)	-0.1	0.49
CC(N)c1ccco1 (stereo not given)	0.6	/
CCOc1cc(/C=C(/C#N)c2cccc(Br)c2)ccc1OCc1ccc(C(=O)O)o1	-0.1	-0.102
N#C/C(=C\C1=C(N2CCOCC2)C(=C/c2ccc(Cl)cc2Cl)/CC1)c1nnc(N2CCOCC2)n1-c1ccccc1	0.8	/
CN1CCN(c2nc(-c3ccc(Cl)s3)cs2)CC1	-3.8	/
CC1CC1C(=O)Nc1ccc2[nH]ncc2c1 (stereo not given)	2.9	0.234
O=C(NN1C(=O)C2C3c4ccccc4C(c4ccccc43)C2C1=O)c1cccnc1 (stereo not given)	2.3	-0.183
COc1ccc(CN2CC(C(=O)NCCC(C)C)CC2=O)cc1 (stereo not given)	2.0	-1.01
CC1(C)CSC(=Nc2cccc(C(F)(F)F)c2)N1C(=O)/C=C/c1ccco1	-0.2	/
CCOC(=O)N1CCN(C(=O)c2cnn3c(C(F)(F)F)cc(-c4cccc(OC)c4)nc23)CC1	5.8	0.455
CCOC(=O)c1c(CN(C)C)oc2ccc(O)cc12	0.3	-1
O=C(OCC1CCCO1)c1c(Cl)cccc1Cl (stereo not given)	-3.0	/
C[C@@H]1C[C@H]2[C@@H]3C[C@H](F)C4=CC(=O)C=C[C@]4(C)[C@@]3(Cl)[C@@H](O)C[C@]2(C)[C@H]1C(=O)COC(=O)C(C)(C)C	-0.2	-1.29
CN(C(=O)c1ccc2c(c1)N(Cc1ccc(F)cc1)C(=O)c1ccccc1S2=O)C1CCCCC1 (stereo not given)	-0.3	0.005
CCOc1ccc(NC(=O)CC2C(=O)N(CC)C(=S)N2NC(=O)c2ccncc2)cc1 (stereo not given)	1.2	0.253
CN(Cc1ccccc1F)C(=O)c1ccccc1S(C)(=O)=O	-0.1	/
Cc1nn(C2CCS(=O)(=O)C2)c(C)c1CN(C)C(=O)c1ccc(S(=O)(=O)N(C)C)cc1 (stereo not given)	0.9	/
O=C(Nc1cc(=O)[nH]c(=O)[nH]1)c1cccc(C(F)(F)F)c1	0.2	-1.06
CC(C)CN1CC23C=CC(O2)C(C(=O)OC(C)C)C3C1=O (stereo not given)	0.1	-0.136
COc1ccccc1N1CCN(CCCOc2cc(C)ccc2C(C)C)CC1	0.6	0.115
O=C1CCCC/C1=N\Nc1ccc(CN2CCCCC2)cc1	0.7	-0.437
O=C(CON1C(=O)CCC1=O)Nc1cccc2ccccc12	0.5	1.09
Nc1ccc2nc(SCC(=O)n3c4c(c5ccccc53)CCCC4)sc2c1	0.8	-0.402

Given with values under each structure: five of the compounds above.
Values run as follows: BasE inh | KSHV LANA nucl
CCOC(=O)N1CCN(C(=O)c2cnn3c(C(F)(F)F)cc(-c4cccc(OC)c4)nc23)CC1
  5.8 | 0.455
CCOc1cc(/C=C(/C#N)c2cccc(Br)c2)ccc1OCc1ccc(C(=O)O)o1
  -0.1 | -0.102
CCC(C)NC(=O)CCc1nc2ccccc2n1-c1ccccc1 (stereo not given)
  -1.6 | /
O=C(NN1C(=O)C2C3c4ccccc4C(c4ccccc43)C2C1=O)c1cccnc1 (stereo not given)
  2.3 | -0.183
COc1ccccc1N1CCN(CCCOc2cc(C)ccc2C(C)C)CC1
  0.6 | 0.115

Additional structures:
Molecule	BasE inh	KSHV LANA nucl
O=C1CCC(NC(=O)OCc2ccccc2)(C(=O)OCc2ccccc2)O1 (stereo not given)	5.5	/
c1ccc2c(NC3C4CC5CC(C4)CC3C5)nc(N3CCOCC3)nc2c1 (stereo not given)	2.4	0.866
O=C1NC(=O)C(c2ccccc2)N1 (stereo not given)	1.8	/
O=c1[nH]c(O)c(C=NCc2ccc3c(c2)OCO3)c(=O)[nH]1	1.0	-0.427
NNC(=O)c1cc2sccc2s1	-0.1	/
O=C(Cc1ccccc1)NCc1ccc(F)cc1	2.3	0.007
O=C1c2ccccc2C(=O)C1c1cc(=O)[nH]c2c1ccc1ccccc12	-1.0	/
CC(C)CCN1C(=O)c2ccc(C(=O)C(C#N)c3ccccn3)cc2C1=O (stereo not given)	0.2	/
CC(C)N1CCNCC1	0.1	-0.849
O=S(=O)(c1c(F)cccc1F)N1CCN(Cc2c(O)ccc3ccccc23)CC1	1.2	/
Nc1nnnn1/N=C/c1cccc(Br)c1	4.3	-0.074
Cn1c(C(=O)NCc2ccccn2)cc2c(=O)n(C)c3ccccc3c21	0.6	1.71
Cc1ccc(-n2cc(-c3ccccc3)c3c(=O)[nH]cnc32)cc1	0.5	/
Cc1nc(-c2cc(C#N)c(SCCC(=O)OC(C)(C)C)nc2C)cs1	0.3	/
CN(C)c1ccc(/C=C/C=N/N=c2/sc3ccccc3n2C)cc1	0.7	-0.754
Cc1cc(C)nc(NS(=O)(=O)c2ccc(NS(=O)(=O)CC34CCC(CC3=O)C4(C)C)cc2)n1 (stereo not given)	1.0	/
O=C(Cn1c(S(=O)(=O)Cc2ccccc2)nc2ccccc21)NC1CC1	0.2	-0.778
Cc1cc2c(cc1S(=O)(=O)N1CCOc3ccccc31)n(C)c(=O)n2C	0.0	-0.841
CCc1nn(CC(=O)NCCc2c[nH]c3ccccc23)c(=O)c2cc3occc3n12	-2.0	-1.22
Cn1c(-c2ccccc2)c(C(=O)COC(=O)c2ccc(C#N)cc2)c2ccccc21	0.6	/
CC(C)c1ccc(C2SCC(=O)N2C)cc1 (stereo not given)	-1.5	/
COc1ccc(CNC(C)C(=O)NC2CCCCC2C)cc1 (stereo not given)	-0.6	/
CCCn1c(=O)n(C)c(=O)c2c(SCC(=O)/C(C#N)=C(\C)N)nc(CC(C)C)nc21	0.1	/
O=C(CCN1CCN(Cc2ccc3c(c2)OCO3)CC1)N1N=CCC1(O)C(F)(F)F (stereo not given)	0.3	/
Cc1cc(C)c(C)c(OCC(=O)N(Cc2nc(-c3ccccc3)no2)C2CCCCC2)c1	-0.9	1.46

Molecule	BasE inh	KSHV LANA nucl
CSc1nnc(C2CCCN2)n1C (stereo not given)	4.7	0.104
O=C(Cn1ncc2c([nH]c3ccccc32)c1=O)NCC1CCN(Cc2ccccc2F)CC1	-3.5	0.208
O=C(c1ccco1)N(Cc1ccccc1)Cc1ccccc1	-2.0	-0.233
O=c1[nH]c2ccc(S(=O)(=O)Nc3ccccc3)cc2o1	-2.4	-0.034
CCc1cccc2c1=NC(=O)C=2c1sc(N)nc1O	-0.2	0.643
CC1(C)C(=O)Nc2ccccc2N1C(=O)CSc1nnc(COc2ccccc2Cl)o1	-1.5	/
CC1CCCCN1CCCNC(=O)c1ccc(Br)cc1 (stereo not given)	-1.8	/
CCc1cc2c(=O)n(Cc3ccccc3)c(SCc3c(C)noc3C)nc2s1	0.7	/
CC(C)N(C(=O)Cn1cc(S(=O)(=O)CC(N)=O)c2ccccc21)C(C)C	2.2	-1.52
CC1CCCCN1C(=O)CN1CCN(C)CC1 (stereo not given)	-2.4	-0.654
CCN1CCN(CC(=O)c2ccccc2Br)CC1	0.8	/
CCOc1ccc(C(=O)n2cnc3cc(C)c(C)cc32)cc1	3.2	/

High-throughput results deposited in PubChem by ICCB-Longwood Screening Facility, Harvard Medical School.

Some of the compounds tested (hit frequency here may not be typical).
